RecA intein inh – inhibitors of M. tuberculosis RecA intein splicing; P9WHJ3; cell-free RecA intein splicing, fluorescence; inhibition, %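 (about 9 µM by stock and volumes)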; 290,000 compounds, 0.75% hits; AID 2221; in the data active means inhibition above about 30%; inconclusive means no clear call, values can overlap the other calls;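 further: 0% = vehicle wells and 100% = reference inhibitor control wells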
Target sequence (P9WHJ3 whole entry, looked up): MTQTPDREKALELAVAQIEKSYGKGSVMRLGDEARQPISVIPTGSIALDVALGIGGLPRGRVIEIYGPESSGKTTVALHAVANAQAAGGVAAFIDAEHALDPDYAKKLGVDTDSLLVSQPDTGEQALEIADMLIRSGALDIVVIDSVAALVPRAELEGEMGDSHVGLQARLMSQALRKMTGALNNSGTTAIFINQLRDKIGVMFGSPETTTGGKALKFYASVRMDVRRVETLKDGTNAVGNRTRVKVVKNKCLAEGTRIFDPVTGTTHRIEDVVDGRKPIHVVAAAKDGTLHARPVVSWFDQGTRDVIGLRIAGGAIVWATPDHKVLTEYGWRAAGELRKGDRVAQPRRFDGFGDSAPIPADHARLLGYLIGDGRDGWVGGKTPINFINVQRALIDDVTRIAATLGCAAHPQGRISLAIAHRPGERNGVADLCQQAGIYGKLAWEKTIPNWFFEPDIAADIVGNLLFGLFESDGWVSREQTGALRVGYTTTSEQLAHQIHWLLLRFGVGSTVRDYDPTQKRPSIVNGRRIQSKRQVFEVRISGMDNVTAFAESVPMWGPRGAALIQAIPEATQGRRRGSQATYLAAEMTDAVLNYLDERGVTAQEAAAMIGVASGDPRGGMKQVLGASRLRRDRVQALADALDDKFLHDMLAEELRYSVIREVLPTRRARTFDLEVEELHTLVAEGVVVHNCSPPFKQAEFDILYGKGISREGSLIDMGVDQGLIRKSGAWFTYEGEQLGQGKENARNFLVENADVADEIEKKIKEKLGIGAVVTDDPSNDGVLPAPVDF
Arbovirus anti – blocks arbovirus infection; arbovirus infection cell-based antiviral screen; inhibition, % at 10 µM; 200,000 compounds, 0.37% hits;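 active means inhibition from about 30%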;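 further: bluetongue infection of BSR cells; cell survival read as ATP light after 72 h; 0% = infected wells without compound and 100% = uninfected wells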
Mtb growth – M. tuberculosis H37Rv growth inhibitors, H37Rv strain (AID 1626) | M. tuberculosis H37Rv growth inhibition; higher % means a stronger effect | inhibition, % at 10 µM; hits with a dose series show IC50 in µM | 220,000 compounds, 0.95% hits;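 active means confirmed in a dose series; inconclusive means inhibition above 80% but not taken into the dose series; inactive means below 80% or under 30% at every dose of the series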;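 further: bacteria incubated seven days before Alamar blue readout; 0% = bacteria only wells and 100% = bacteria with antibiotic wells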
YopH inh – inhibitors of Yersinia enterocolitica YopH tyrosine phosphatase; fluorescence Ex485/Em525; 140,000 compounds, 0.16% hits; AID 898; inhibition, %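 (about 10 µM by stock and volumes)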;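 active means inhibition of 50% or more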;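 further: controls were vehicle for no effect and minimum signal wells for full effect; inactives centre near -20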
Mtb betalactam – beta-lactam sensitization of Mtb H37Rv. inhibition, % at 25 µM. 330,000 compounds, 0.27% hits. M. tuberculosis H37Rv growth with meropenem, percent inhibition; hits of this screen are not shown here;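 active means about 74% or more and at least 40 points above the plate without the antibiotic, then above 30% in a dose series; inconclusive means first-round hits that could not be retested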;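 further: growth measured after seven days incubation then overnight dye step; 0% = bacteria only wells and 100% = bacteria with antibiotic; twin plates without the antibiotic show which effects depend on it; some results filed as inactive read as strong as hits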
* hit, by the source's call; ? = inconclusive; · = no result given. This is a subset, so the mix of outcomes need not match the whole.

1: COC(=O)CCC(=O)OC1(C)C(=O)C=C2C=C(C3CC3)N(C(CO)CO)C=C2C1=O (stereo not given)
2: Cc1ccc(NC(=O)CC2C(=O)NCCN2C(=S)Nc2ccccc2)c(C)c1 (stereo not given)
3: CN(CC(=O)Nc1ccc(N2CCOCC2)cc1)CC(=O)Nc1ccccc1C#N
4: COc1cc(/C(C)=N/N2CCN(c3ccccc3OC)CC2)ccc1O
5: Cc1ccc(C(=O)NNC(=O)c2ccccc2-n2cccc2)cc1
6: COc1ccc2c(c1)[nH]c1c(=O)n(CCCN3CCOCC3)cnc12
Compound | 1 | 2 | 3 | 4 | 5 | 6
RecA intein inh | 21.5 | -0.8 | -2.1 | -5.1 | · | -1.9
Arbovirus anti | · | -3.6 | -8.4 | · | 8.2 | -0.2
Mtb growth | 0.3% | -7.7% | -5.4% | · | -5.4% | -11.8%
YopH inh | · | -19.8 | -24.4 | · | · | 3.8
Mtb betalactam | -0.2 | -1.6 | -7.9 | -1.0 | 73.6 | -4.5

7: O=C(c1ccccc1)c1ccc(COC(=O)c2cnccn2)cc1
8: Cc1ccc(NC(=O)c2cc(N3C(=O)C4CC=CCC4C3=O)ccc2N2CCOCC2)cc1Cl (stereo not given)
9: O=C(N[C@@H](Cc1c[nH]c2ccccc12)C(=O)O)c1ccc(Cl)cc1
10: O=C(CSc1nnc2ccc(-c3ccc(F)cc3)nn12)N1CCOCC1
11: Cc1ccccc1S(=O)(=O)Cc1ccc(C(=O)N2CCN(c3cccc(C)c3C)CC2)o1
12: O=C(NCCCNC(=O)c1ccccc1)c1ccccc1
Compound | 7 | 8 | 9 | 10 | 11 | 12
RecA intein inh | 2.9 | 3.1 | -0.9 | 0.4 | 10.4 | 1.0
Arbovirus anti | -2.8 | 4.2 | 3.0 | · | -41.9 | ·
Mtb growth | 44.6% | 1.2% | -5.1% | · | 9.8% | ·
YopH inh | · | -7.9 | · | · | -42.7 | ·
Mtb betalactam | 71.0 | -5.1 | -9.0 | -0.2 | 33.7 | 1.8

13: COc1ccc(C)cc1NC(=O)CN1C(=O)CSc2ccc(S(=O)(=O)N3CCCC3)cc21
14: CCOC(=O)C(=O)Nc1ccc(F)cc1
15: CCOC(=O)c1c(-c2ccccc2)nnn1-c1nc(OCC)nc(N2CCCCC2)n1
16: CCCNC(=O)CCn1nc(-c2ccc(C)cc2)c2ccccc2c1=O
17: O=C(COc1ccc(F)cc1)NCC1CCCO1 (stereo not given)
18: O=C(c1cc2ccccc2oc1=O)N1CCCC1
Compound | 13 | 14 | 15 | 16 | 17 | 18
RecA intein inh | 1.4 | -0.1 | 3.1 | 3.3 | 1.6 | 0.5
Arbovirus anti | · | -0.2 | -4.7 | · | 1.6 | 2.8
Mtb growth | · | -8.1% | 10.7% | · | -17.4% | 89.9%
YopH inh | · | -24.9 | -32.0 | · | -17.7 | -1.4
Mtb betalactam | 2.5 | -2.7 | 55.8 | 0.4 | -10.7 | -5.9

19: C/C=C\C(=O)Nc1cccc(C2=NOC3(C2)C[C@@H](C(N)=O)N(C(=O)COc2ccc(Cl)cc2)C3)c1 (stereo not given in full)
20: COc1cccc2c1OCC(C(=O)Nc1nccs1)=C2
21: CSc1ccc(CN2CCN(C(=O)CC(C)C)CC2)cc1
22: CC(=O)Oc1ccc(OC(C)=O)c2c1CC(C)=C(C)C2
23: CCCCCOC(=O)CCN1C(=O)/C(=C2\SC(=S)N(CCC(=O)OCCCCC)C2=O)SC1=S
24: COc1ccc(-c2nc(NCCCN(C)C)c3ccccc3n2)cc1
Compound | 19 | 20 | 21 | 22 | 23 | 24
RecA intein inh | 3.9 | -2.3 | -3.4 | 0.4 | -2.8 | -2.5
Arbovirus anti | · | · | · | · | · | ·
Mtb growth | 17.4% | · | · | 4.4% | ? | ·
YopH inh | · | · | · | · | · | ·
Mtb betalactam | -8.2 | 13.7 | -3.6 | -5.2 | 99.4 | 4.5

25: Cc1cc2ncn(-c3ncccc3[N+](=O)[O-])c2cc1C
26: CCN(CC)S(=O)(=O)c1ccc(C)c(C)c1
27: COc1cccc(C2=NOC(C(=O)NCc3ccco3)C2)c1 (stereo not given)
28: O=C(c1ccccc1)c1cc([N+](=O)[O-])ccc1N1CCCC1
29: CCOC(=O)c1[nH]c2ccc(OC)cc2c1NC(=O)N1CCOCC1
30: COc1ccccc1Nc1nc(NCC(C)C)nc(N)c1[N+](=O)[O-]
Compound | 25 | 26 | 27 | 28 | 29 | 30
RecA intein inh | 4.0 | 1.3 | 0.9 | 7.7 | 0.1 | 2.2
Arbovirus anti | · | 3.7 | -21.4 | -10.2 | -4.8 | ·
Mtb growth | · | -3.6% | · | -0.7% | -5.0% | 13.3%
YopH inh | · | -12.2 | -38.9 | -17.9 | -38.3 | ·
Mtb betalactam | -6.7 | -11.0 | -5.7 | 2.5 | 0.9 | 10.8

13 structures from above, arranged by number of heavy atoms, rising:
14: CCOC(=O)C(=O)Nc1ccc(F)cc1
26: CCN(CC)S(=O)(=O)c1ccc(C)c(C)c1
18: O=C(c1cc2ccccc2oc1=O)N1CCCC1
20: COc1cccc2c1OCC(C(=O)Nc1nccs1)=C2
21: CSc1ccc(CN2CCN(C(=O)CC(C)C)CC2)cc1
28: O=C(c1ccccc1)c1cc([N+](=O)[O-])ccc1N1CCCC1
30: COc1ccccc1Nc1nc(NCC(C)C)nc(N)c1[N+](=O)[O-]
24: COc1ccc(-c2nc(NCCCN(C)C)c3ccccc3n2)cc1
Compound | 14 | 26 | 18 | 20 | 21 | 28 | 30 | 24
RecA intein inh | -0.1 | 1.3 | 0.5 | -2.3 | -3.4 | 7.7 | 2.2 | -2.5
Arbovirus anti | -0.2 | 3.7 | 2.8 | · | · | -10.2 | · | ·
Mtb growth | -8.1% | -3.6% | 89.9% | · | · | -0.7% | 13.3% | ·
YopH inh | -24.9 | -12.2 | -1.4 | · | · | -17.9 | · | ·
Mtb betalactam | -2.7 | -11.0 | -5.9 | 13.7 | -3.6 | 2.5 | 10.8 | 4.5

16: CCCNC(=O)CCn1nc(-c2ccc(C)cc2)c2ccccc2c1=O
15: CCOC(=O)c1c(-c2ccccc2)nnn1-c1nc(OCC)nc(N2CCCCC2)n1
13: COc1ccc(C)cc1NC(=O)CN1C(=O)CSc2ccc(S(=O)(=O)N3CCCC3)cc21
23: CCCCCOC(=O)CCN1C(=O)/C(=C2\SC(=S)N(CCC(=O)OCCCCC)C2=O)SC1=S
19: C/C=C\C(=O)Nc1cccc(C2=NOC3(C2)C[C@@H](C(N)=O)N(C(=O)COc2ccc(Cl)cc2)C3)c1 (stereo not given in full)
Compound | 16 | 15 | 13 | 23 | 19
RecA intein inh | 3.3 | 3.1 | 1.4 | -2.8 | 3.9
Arbovirus anti | · | -4.7 | · | · | ·
Mtb growth | · | 10.7% | · | ? | 17.4%
YopH inh | · | -32.0 | · | · | ·
Mtb betalactam | 0.4 | 55.8 | 2.5 | 99.4 | -8.2

More records.
31: COC(=O)c1cc(=O)nc2sccn12
32: O=C(O)c1ccc(-n2c(O)c(/C=C3\C=Nc4ccccc43)c(=O)[nH]c2=O)cc1
33: Cc1cccc(C)c1NC(=S)N(Cc1ccccc1)Cc1cccnc1
34: Cc1nnc(SCCN2C(=O)c3ccccc3C2=O)nc1C
35: CCCCCC(/C=N/Nc1ccc(S(=O)(=O)N2CCOCC2)cc1[N+](=O)[O-])=C\c1ccccc1
36: COc1cccc(C(=O)NC2CCCN(C3Cc4ccccc4C3)C2)c1OC (stereo not given)
Compound | 31 | 32 | 33 | 34 | 35 | 36
RecA intein inh | 0.5 | 8.0 | -1.4 | -1.5 | -1.3 | 4.3
Arbovirus anti | 16.9 | · | -5.4 | · | -11.7 | ·
Mtb growth | -14.8% | · | -0.6% | 4.6% | -4.0% | ·
YopH inh | -6.9 | · | · | · | -1.1 | ·
Mtb betalactam | -5.5 | -4.0 | -2.1 | -6.1 | 11.3 | 7.3

37: CCc1cccc(CC)c1NC(=S)Nc1ccccc1
38: COc1ccc([N+](=O)[O-])cc1N(CC(=O)Nc1ccccc1C(=O)N1CCCC1)S(C)(=O)=O
39: O=C(C1CCN(S(=O)(=O)N2CCC3(CC2)OCCO3)CC1)N1CCc2ccccc2C1
40: CCCS(=O)(=O)Nc1cccc(-c2cn3c(n2)SCC3)c1
41: Cc1cc(C)n(Cc2n[nH]c(=S)n2Cc2ccccc2)n1
42: Cc1ccc(S(=O)(=O)N2CCN(C(=O)CCC(=O)NCc3ccc(F)cc3)CC2)cc1
Compound | 37 | 38 | 39 | 40 | 41 | 42
RecA intein inh | 3.7 | -1.3 | -2.8 | 0.0 | 3.1 | -2.4
Arbovirus anti | 3.1 | 0.0 | 1.7 | · | 6.7 | 3.3
Mtb growth | -1.8% | 6.2% | · | · | -5.3% | -7.1%
YopH inh | · | · | -11.9 | · | -22.1 | -26.5
Mtb betalactam | 3.4 | 4.0 | -6.2 | 1.1 | -13.3 | 11.6

43: O=C(Nc1ccc2c(c1)OCCO2)c1cncc(Br)c1
44: Cc1nn(C)c(C)c1NC(=O)c1ccc(Br)o1
45: CCOc1ccccc1CNC(=O)CCCC(=O)n1nc(C)c2ccccc21
46: COc1cccc(C(=O)CC(=O)C(=O)Nc2cc(OC)ccc2OC)c1
47: CCN(CC)c1ccc(C(=O)OCC(=O)Nc2ccc3[nH]c(=O)[nH]c3c2)cc1
48: CN(c1ccc(C(=O)Nc2ccccc2C(=O)N2CCCC2)cc1)S(C)(=O)=O
49: O=[N+]([O-])c1cc(S(=O)(=O)N2CCCC2)ccc1N/N=C/c1ccccn1
50: CCCC12CN3CC(C)(CN(C1)C31C(=O)Nc3ccc(C)cc31)C2=O (stereo not given)
Compound | 43 | 44 | 45 | 46 | 47 | 48 | 49 | 50
RecA intein inh | -0.9 | -0.8 | 1.7 | 2.9 | 3.0 | 3.2 | -1.4 | -2.2
Arbovirus anti | 7.6 | -0.7 | · | · | 4.6 | 3.6 | -2.0 | 2.7
Mtb growth | -3.4% | -6.6% | · | · | 6.2% | 3.7% | -8.1% | -11.2%
YopH inh | -23.4 | · | · | · | · | 11.2 | -32.0 | -0.4
Mtb betalactam | -1.1 | -13.1 | 1.6 | 3.0 | 5.1 | 42.0 | -2.2 | -3.3
